PrP 5UTR inh – inhibition of PrP 5' UTR reporter expression | AID 488862 | hit rate 0.35% among 340,000 | cell-based PrP 5' UTR mRNA reporter, plate reader | inhibition, % (no concentration beside the values);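 active means every replicate at 50% or more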;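 further: 0 = median of the neutral control wells; tested in H4 reporter cells; numbers are from one replicate; inactives centre near -14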
Bead autofluor – flagged as autofluorescent in microsphere protease counterscreen; compound autofluorescence counterscreen, microsphere flow cytometry; active compounds read high; fluorescence intensity (concentration not given with the values); hit rate 3.1% among 360,000; AID 624483;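 active means at least 3 SD above the mean of all compounds, about 16000 in these data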;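 further: 100 nL of 1 mM stock went into each well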
RN4220 kill – S. aureus RN4220 growth inhibition; inhibition, % (concentration not given with the values); OD600, 16 h; hit rate 0.33% among 330,000;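 active means z-score of -3 or lower and OD600 up to 0.18 on both plates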;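 further: plate controls were untreated cells for no effect and reference antibiotic for full effect; stock transfer was 100 nL into about 80 µL; one replicate is shown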
BJeLR lethal – BJeLR cell viability loss; BJeLR (HRASV12) viability, CellTiter-Glo ATP luminescence, 48 h; reference of the scale not given here; inhibition, % (concentration not given with the values); hit rate 0.17% among 300,000;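 active means replicate mean above 50%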;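 further: 50 nL library stock added to about 25 µL; numbers are from one replicate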
ugtP null kill – growth inhibition of S. aureus ugtP deletion strain | growth inhibition, % (concentration not given with the values) | S. aureus RN4220 ugtP deletion, OD600 growth, 16 h; some inactives read as strong as hits | hit rate 0.54% among 330,000;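 active means z-score under -3 and OD600 up to 0.15 on both plates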;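 further: plate controls were untreated wells for no effect and antibiotic for full effect; wells of about 80 µL received 100 nL stock; the first replicate is given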
Mtb hypoxia inh – Mtb hypoxia fluorescent reporter inhibition | fluorescence inhibition, % (no concentration beside the values) | M. tuberculosis hypoxia-regulated fluorescent reporter, fluorescence | hit rate 0.1% among 300,000;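 active means 35 to 45% if threefold the growth effect, above 45% if 1.5-fold the growth effect; inactive means the rest, general growth blockers included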;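 further: wells of about 50 µL received 100 nL stock; 0% = vehicle wells and 100% = reference inhibitor wells; whole bacteria with a GFP reporter of the hypoxia response; strong numbers were not always called active; many hits fall short of the cut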
Mtb hypoxia inh growth – further read-out of Mtb hypoxia inh, marked with its call; growth inhibition, %; measured here: M. tuberculosis growth (absorbance);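 0% = vehicle and 100% = reference antibiotic; read after six days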
* hit, by the source's call; . = no result given.

SMILES	PrP 5UTR inh	Bead autofluor	RN4220 kill	BJeLR lethal	ugtP null kill	Mtb hypoxia inh	Mtb hypoxia inh growth
Cc1nn(-c2ccccc2)c(C)c1C(=O)NCc1ccc(S(N)(=O)=O)cc1	-14	5806	3.8	-3	15	-9	0
O=C(NC1(C(F)(F)F)Oc2ccccc2O1)N1CCC2(CC1)OCCO2	-22	21302*	12	3	-4	11	9
COc1ccc(OCc2nc3c4cc(OC)c(OC)cc4nc(=S)n3[nH]2)cc1	0	2449	20	-7	12	6	11
Cc1cccc(N2CCN(c3cc(C)nc4nnnn34)CC2C)c1 (configuration not stated)	-17	2817	-0.1	18	5	.	.
Cc1cc(O)cc(O)c1C=NCc1ccco1	-21	2036	5.9	-2	3	9	2
Cc1ccc(OCC(=O)c2cc(C)c(C)cc2C)c([N+](=O)[O-])n1	-6	3449	-8.1	-5	-2	15	-16
O=C(NCCCn1ccnc1)c1cccc(S(=O)(=O)Nc2ccccc2F)c1	-19	12439	1.9	0	4	10	7
Cc1nc2c(C)cccn2c1C(=O)c1ccccc1	-19	5159	5.2	-18	10	19	12
O=C(Nc1ccccc1C(=O)Nc1nnc(C(F)(F)F)s1)c1ccccc1	-5	4869	.	27	.	.	.
Cc1ccccc1NC(=O)CCn1c(=O)oc2ccccc21	-6	5459	5.5	8	6	6	3
CC(=O)c1ccc(NC(=O)C(C)NCc2ccc(Cl)cc2)cc1 (configuration not stated)	-10	4898	2.7	-4	1	15	3
Cc1ccc(-c2csc(NC(=O)CN3CC(C)OC(C)C3)n2)cc1 (configuration not stated)	-4	3646	5.9	-5	15	7	1
Cc1ccc(C(=O)c2nccn2C)cc1C	-16	5619	1.0	-7	8	4	15
CCO[C@@H]1OC(C(=O)Nc2ccccc2)=C[C@H](c2coc3ccccc3c2=O)[C@H]1CCCO	-27	3574	.	-1	.	.	.
CC(=O)Nc1n[nH]c(-c2ccc(C)cc2)c1C	-4	2036	3.9	-2	10	-2	1
Cc1cc(=O)oc2cc(OCC(=O)N/N=C/c3ccccc3O)ccc12	-16	5861	.	9	.	.	.
N#CCC(=O)Nc1ccccc1C(=O)O	-7	4085	0.9	-1	3	.	.
Cc1ccc(S(=O)(=O)Oc2cc(N)c3c(n2)CCC3)cc1	-11	2951	0.3	4	0	-2	-5
CN1CCN(C(=O)c2cc3nc(-c4ccco4)cc(C(F)(F)F)n3n2)CC1	-22	3196	4.2	-2	6	7	2
CN(C)S(=O)(=O)c1cccc(NC(=O)COC(=O)c2cc(=O)c3ccccc3o2)c1	-15	4149	1.0	-9	2	8	3

Structures from the list above that contain four or more nitrogen atoms:
SMILES	PrP 5UTR inh	Bead autofluor	RN4220 kill	BJeLR lethal	ugtP null kill	Mtb hypoxia inh	Mtb hypoxia inh growth
Cc1nn(-c2ccccc2)c(C)c1C(=O)NCc1ccc(S(N)(=O)=O)cc1	-14	5806	3.8	-3	15	-9	0
COc1ccc(OCc2nc3c4cc(OC)c(OC)cc4nc(=S)n3[nH]2)cc1	0	2449	20	-7	12	6	11
Cc1cccc(N2CCN(c3cc(C)nc4nnnn34)CC2C)c1 (configuration not stated)	-17	2817	-0.1	18	5	.	.
O=C(NCCCn1ccnc1)c1cccc(S(=O)(=O)Nc2ccccc2F)c1	-19	12439	1.9	0	4	10	7
O=C(Nc1ccccc1C(=O)Nc1nnc(C(F)(F)F)s1)c1ccccc1	-5	4869	.	27	.	.	.
CN1CCN(C(=O)c2cc3nc(-c4ccco4)cc(C(F)(F)F)n3n2)CC1	-22	3196	4.2	-2	6	7	2

Four compounds drawn at random from those above:
SMILES	PrP 5UTR inh	Bead autofluor	RN4220 kill	BJeLR lethal	ugtP null kill	Mtb hypoxia inh	Mtb hypoxia inh growth
Cc1cc(=O)oc2cc(OCC(=O)N/N=C/c3ccccc3O)ccc12	-16	5861	.	9	.	.	.
Cc1nc2c(C)cccn2c1C(=O)c1ccccc1	-19	5159	5.2	-18	10	19	12
CN1CCN(C(=O)c2cc3nc(-c4ccco4)cc(C(F)(F)F)n3n2)CC1	-22	3196	4.2	-2	6	7	2
CN(C)S(=O)(=O)c1cccc(NC(=O)COC(=O)c2cc(=O)c3ccccc3o2)c1	-15	4149	1.0	-9	2	8	3

A draw from above in order of molar mass, lowest first:
SMILES	PrP 5UTR inh	Bead autofluor	RN4220 kill	BJeLR lethal	ugtP null kill	Mtb hypoxia inh	Mtb hypoxia inh growth
Cc1nc2c(C)cccn2c1C(=O)c1ccccc1	-19	5159	5.2	-18	10	19	12
Cc1ccccc1NC(=O)CCn1c(=O)oc2ccccc21	-6	5459	5.5	8	6	6	3
O=C(Nc1ccccc1C(=O)Nc1nnc(C(F)(F)F)s1)c1ccccc1	-5	4869	.	27	.	.	.

High-throughput results: PubChem, several laboratories

Outcome played no part in choosing rows (roughly 4.1% active in at least one column).
